KSHV LANA nucl = inhibitors of KSHV LANA binding to nucleosomes; hit rate 0.3% among 51,000; z-score (concentration not given with the values); AID 720717; FITC-LANA1-23 / chicken nucleosome fluorescence polarization; active compounds read low;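 active means both repeat wells score below -2 in polarization z-score versus plate sample wells, excluding overly bright wells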;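 further: 100 nL library stock added to about 30 µL; numbers are from one replicate; some results filed as inactive read as strong as hits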
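Test system: purified chicken nucleosomes with FITC-labelled LANA N-terminal peptide (1-23); Input: 240 nM purified chicken nucleosomes (480 nM peptide binding sites), final; Medium: TEN-BT buffer, pH 7.5; Timing: 10–45 min, room temperature; Technique: fluorescence polarization, 480 nm excitation, 535 nm parallel and perpendicular emission; Replication: duplicates.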
Ab BasE inh = blocks the Acinetobacter baumannii siderophore enzyme BasE | purified BasE, fluorescence polarization binding displacement | inhibition, % (test concentration not listed) | hit rate 0.1% among 84,000 | AID 485350;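 active means both replicates above 25% with normal brightness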;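 further: 0% = negative plate control signal and 100% = positive plate control signal; stock transfer was 100 nL into about 30 µL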
* = called active by the depositor; x = no result given. Only part of the results is shown; rates above refer to the full screens.

SMILES	KSHV LANA nucl	Ab BasE inh
O=C(c1ccc2c(c1)CCO2)N1CC=C(c2ccccc2)CC1	-1.2	x
Cn1c(=NC(=O)C2CCCCC2)sc2cc(F)ccc21	-1.12	1.1
Cn1ncc2c(N3CCCCC3)nc(N3CCCC3)nc21	2.56	-0.6
CNC(=O)c1csc(-c2ccccc2)n1	0.057	x
CCOC(=O)c1sc2nc(CN3CCOCC3)nc(NCC3COc4ccccc4O3)c2c1C (configuration not stated)	x	0.0
CCCCn1c(=O)c(C(=O)OCC)c(O)c2ccccc21	0.727	1.0
O=C(NCCNCc1ccco1)c1ccccc1	-0.169	-1.4
CC(C)(C)C(=O)Nc1ccccc1C(=O)Nc1nccs1	-0.777	1.2
COC(=O)c1cn(C(=O)OC)c2ccccc12	0.143	0.2
COCCN=C1NN=C(c2cc(C)n(CCc3ccc(F)cc3)c2C)CS1	x	-0.7
Cc1cc(C)nc(SCc2nnc(Nc3ccc(S(N)(=O)=O)cc3)s2)n1	0.48	-6.9
COC(=O)C(NC(=O)CC12CC3CC(CC(C3)C1)C2)C(C)C (configuration not stated)	-0.671	3.7
O=C(OCc1ccco1)c1cnc(Nc2ccc(OC(F)(F)F)cc2)nc1C(F)(F)F	-0.207	1.4
O=C(CSc1nnnn1C1CCCC1)Nc1nc2ccc(F)cc2s1	x	-3.6
CS(=O)(=O)c1ccc(Cl)c(C(=O)OCC(=O)c2ccc3c(c2)OCO3)c1	x	-2.5
COc1ccc(C(=O)N(C)C2CCCCC2)cc1	-0.539	0.8
O=C(/C=C/c1cccs1)Nc1nnc(-c2cccs2)o1	0.702	0.5
Cn1c(Cn2c(=O)sc3ccccc32)nnc1SCc1ccc(Cl)cc1	1.23	-0.1
CC1Sc2ccc(C(=O)Nc3ccc(S(=O)(=O)NCc4ccco4)cc3)cc2NC1=O (configuration not stated)	x	1.2
O=C(NC1=NCCS1)C1CCN(c2ncc(C(F)(F)F)cc2Cl)CC1	x	-1.5
CC1CN(C(=S)NCc2ccco2)CC(C)O1 (configuration not stated)	-0.151	-0.6
CS/C(N)=N/S(=O)(=O)c1cccs1	x	1.4
CCOc1ccc(-n2nnc(C(=O)NCCCn3ccnc3)c2C)cc1	0.198	-1.8
COCCn1c(=O)[nH]c2cc(C(=O)NCC3CCCO3)ccc2c1=O (configuration not stated)	-0.288	0.6
CN(CC(=O)NC1(C#N)CCCC1)c1ccccc1	x	0.2
CCN(Cc1ccccc1)C(=O)Nc1c[nH]c2ccccc12	1.68	-4.9
Cc1cccc(NC(=O)c2ccc(C)c(S(=O)(=O)N3CCCC3)c2)c1	x	1.0
CN(CC#N)c1ccc(C2OCC3(CCC4(COC(c5ccc(N(C)CC#N)cc5)OC4)C3=O)CO2)cc1 (configuration not stated)	x	3.5
Cc1nccn1S(=O)(=O)c1c(C(C)C)cc(C(C)C)cc1C(C)C	-1.4	1.9
COc1ccc(N2CC(NC(=O)N(CC(C)C)CC(C)C)CC2=O)cc1 (configuration not stated)	0.956	-3.4

The closing three entries of the section above open the next one:
SMILES	KSHV LANA nucl	Ab BasE inh
CN(CC#N)c1ccc(C2OCC3(CCC4(COC(c5ccc(N(C)CC#N)cc5)OC4)C3=O)CO2)cc1 (configuration not stated)	x	3.5
Cc1nccn1S(=O)(=O)c1c(C(C)C)cc(C(C)C)cc1C(C)C	-1.4	1.9
COc1ccc(N2CC(NC(=O)N(CC(C)C)CC(C)C)CC2=O)cc1 (configuration not stated)	0.956	-3.4
NCC1COc2ccccc2O1 (configuration not stated)	0.0815	-9.8
O=C(CCc1ccc(-c2ccccc2)o1)N1CCN(S(=O)(=O)Cc2ccccc2)CC1	x	3.7
Cc1ccc(C)c(OC(=O)/C=C/c2ccco2)c1C	x	4.4
CCN(c1ccccc1)S(=O)(=O)c1ccc(-n2cccn2)cc1	-0.708	-1.8
Cc1cc(S(=O)(=O)N(C)CCc2ccccc2)ccc1-n1cnnn1	0.673	-2.6
Cn1c(C2CC(=O)N(c3cccc4ccccc34)C2)nc2ccccc21 (configuration not stated)	-1.28	-2.3
Cc1ccc(S(=O)(=O)NCC2COC3(CCCCC3)O2)cc1 (configuration not stated)	-1.14	1.6
N#Cc1ccc(C(=O)OCC(=O)c2cc3ccccc3o2)cc1	x	-2.6
COC(=O)c1ccc(COC(=O)c2ccc3ncsc3c2)o1	x	-1.4
O=C(CCNS(=O)(=O)c1ccc2[nH]c(=O)ccc2c1)Nc1ccc(CN2CCCCC2)cc1	0.202	-1.4
O=C1Nc2ccccc2C1=NCCCN=C1C(=O)Nc2ccccc21	-0.0445	2.4
Cc1cccc(-c2cc3nc(-c4ccccc4)cc(=O)n3[nH]2)c1	x	-1.0
Cc1csc2c(=O)sc(NC(=O)c3cccs3)nc12	x	0.0
c1ccc(-n2nnnc2N2CCCC2c2nc3ccccc3s2)cc1 (configuration not stated)	x	-2.9
COc1ccc(CCNC(=O)C2CCN(S(C)(=O)=O)CC2)cc1OC	-0.523	-1.2

Profiles, looked up by structure. Order of screens: KSHV LANA nucl | Ab BasE inh
CCN(c1ccccc1)S(=O)(=O)c1ccc(-n2cccn2)cc1 is listed with -0.708 | -1.8
O=C(CCNS(=O)(=O)c1ccc2[nH]c(=O)ccc2c1)Nc1ccc(CN2CCCCC2)cc1 is listed with 0.202 | -1.4
COc1ccc(CCNC(=O)C2CCN(S(C)(=O)=O)CC2)cc1OC is listed with -0.523 | -1.2
Cc1ccc(C)c(OC(=O)/C=C/c2ccco2)c1C is listed with x | 4.4

(next part)
SMILES	KSHV LANA nucl	Ab BasE inh
Cc1cc(C(F)(F)F)nc(SCC(=O)NCc2ccccc2)n1	0.381	0.2
COc1ccc(CCC(=O)NCCc2cn3c(C)csc3n2)cc1	1.28	-0.7
C/C(CCc1ccc2c(c1)OCO2)=N\Nc1nc(C)cc(C)n1	x	0.2
CNS(=O)(=O)c1cccc(C(=O)OCc2nnc(-c3cc(OC)c(OC)c(OC)c3)o2)c1	x	-0.7
C=CCc1cc(C(=O)O)cc(OC)c1OC	x	-1.0
Oc1c(C(c2cccnc2)N2CCCCC2)ccc2cccnc12 (configuration not stated)	x	1.1
Cc1nccc2[nH]c(=O)c(C(=O)NCc3ccc(F)cc3)cc12	1.02	-0.3
COCc1nnc(NC(=O)/C=C/c2ccc3c(c2)OCO3)s1	x	-0.2
COC(=O)/C=C1\NC(=O)C(C)S1 (configuration not stated)	x	0.0
O=C(NCCSc1ccccc1)c1cc2ccccc2o1	0.463	0.1
Cc1ccc2oc(=O)c3cnn(CC(=O)NCCc4ccc(S(N)(=O)=O)cc4)c3c2c1	-1.12	0.5
COc1ccccc1NC(=O)CN(C)S(=O)(=O)c1ccc2c(c1)n(C)c(=O)c(=O)n2C	-1.02	-2.7
CN(C)c1ccc(-c2nc3cnccn3c2Nc2ccccc2)cc1	0.205	1.9
CCOC(=O)c1ccc(NC(=O)Nc2ccc3c4c(cccc24)C(=O)N3CC)cc1	2.35	-18.8
COc1cccc(OC)c1C(=O)Nc1c(C(=O)N2CCN(c3ncccn3)CC2)oc2ccccc12	x	0.0
CC1(C)CC(=O)C=C(N2CCN(c3ccccn3)CC2)C1	x	-0.5
c1ccc2c(c1)OCC(CNc1ncnc3sccc13)O2 (configuration not stated)	x	-1.6
NC(=O)c1cc(N)ccc1N1CCOCC1	0.88	-0.5
CCN(CC)S(=O)(=O)c1cccc(C(=O)NCc2ccccc2)c1	0.275	0.7
Cn1c(SC2CCOC2=O)nnc1-c1ccccc1F (configuration not stated)	x	0.5
COc1ccc(C=Nc2ccc(C)cc2)cc1	x	1.9
CC(=O)N1CCn2c1nc(N(C)C)nc2=O	-0.096	-1.8
O=C(NCc1ccco1)c1cc(C(=O)C2CC2)c[nH]1	0.192	x
CC(=O)N(CCP(=O)(c1ccccc1)c1ccccc1)Cc1ccco1	0.1	-1.3
COc1ccc(-c2nn(-c3ccccc3)cc2NC(=O)Nc2cccc(C#N)c2)cc1OC	x	2.0
NNC(=O)C1CCN(c2ncc(C(F)(F)F)cc2Cl)CC1	-0.623	2.7
O=C(Nc1cnc2ccccn2c1=O)c1ccc(F)cc1	-0.404	0.8
COc1ccc(-c2n[nH]c3c2C(c2ccc(OC)cc2)N(c2ccccc2)C3=O)cc1 (configuration not stated)	0.43	0.0
O=C(CCn1c(=O)c2ccccc2n(Cc2cc(=O)n3ccccc3n2)c1=O)NCc1ccc2c(c1)OCO2	0.46	-0.3
COc1cccc(C(=O)NCc2ccc3c4c(cccc24)C(=O)N3)c1	x	0.1

Four compounds picked at random from the list so far, as already listed:
SMILES	KSHV LANA nucl	Ab BasE inh
NNC(=O)C1CCN(c2ncc(C(F)(F)F)cc2Cl)CC1	-0.623	2.7
O=C(Nc1cnc2ccccn2c1=O)c1ccc(F)cc1	-0.404	0.8
CC1(C)CC(=O)C=C(N2CCN(c3ccccn3)CC2)C1	x	-0.5
NC(=O)c1cc(N)ccc1N1CCOCC1	0.88	-0.5

(further entries)
SMILES	KSHV LANA nucl	Ab BasE inh
COC(=O)/C=C/c1cccc(Br)c1	0.314	x
COCCn1c(C)cc(C(=O)c2sc(-c3c(N)n(C)c(=O)n(C)c3=O)nc2-c2ccccc2)c1C	x	0.9
Oc1c(O)c(CN2CCCCC2)c2ccccc2c1CN1CCCCC1	x	1.7
CC(Sc1nnc(Cc2cccc3ccccc23)n1C1CCCCC1)C(=O)NCc1ccco1 (configuration not stated)	x	1.3
COC(=O)c1ccc(OCC(=O)c2cccc(OC)c2)cc1	-0.436	-1.8
Cn1c(=O)n(Cc2ccccc2F)c(=O)c2c1nc1n2CCCN1Cc1ccco1	-0.897	2.9
CCOc1ccccc1N1CCN(C(=O)C2CCN(Cc3ccc(OC)cc3)CC2)CC1	0.064	-1.6
COc1ccc(-n2ncnc2-c2ccc(Cl)cc2Cl)cc1	x	3.2
CCc1cccc(C)c1NC(=O)c1ccc(C(=O)Nc2c(C)cccc2CC)cc1	x	2.0
CC1CN(C(=O)COC(=O)C2CCC(C(C)(C)C)CC2)CC(C)O1 (configuration not stated)	x	0.6
COc1ccc2c(c1)CC/C(=C/c1cccs1)C2=O	-0.249	2.4
NC[C@@H]1O[C@H](O[C@H]2[C@@H](O)[C@H](O[C@@H]3[C@@H](O)[C@H](N)C[C@H](N)[C@H]3O[C@H]3O[C@H](CN)[C@@H](O)[C@H](O)[C@H]3N)O[C@@H]2CO)[C@H](N)[C@@H](O)[C@@H]1O	-0.223	x
Cc1ccc(S(=O)(=O)N(c2cccc(Cl)c2)c2nc3ccccc3s2)cc1	x	2.1
Cc1cccc(/C=C2/NC(=O)NC2=O)c1	0.349	-0.2
N#Cc1c(N)nc2c(c1-c1ccc3c(c1)OCO3)CCc1ccccc1-2	0.135	-2.9
CN1CCN(C(=O)c2cc3c(ccc4ccccc43)oc2=O)CC1	x	-1.0
O=C(Cc1c(F)cccc1Cl)NCC1CCCO1 (configuration not stated)	0.191	0.9
O=C(CSC1=NNC(c2ccccn2)S1)c1ccc(Cl)cc1 (configuration not stated)	-1.1	1.3
O=C(Cc1coc2cc(O)ccc12)OCC(=O)c1ccc2[nH]c(=O)[nH]c2c1	x	-0.9
COc1ccccc1C(=O)C1C(=O)NC23CCN(C)CC2C1c1cc(Cl)ccc1O3 (configuration not stated)	-0.147	2.4
O=C(Cn1nnc(-c2ccc(S(=O)(=O)N3CCCC3)cc2)n1)Nc1ccccc1-n1cccc1	-0.781	-0.2
CCCCNC(=O)c1cccc(OC)c1	-0.783	-1.4
CCOc1ccc(-c2nc(COC(=O)C(NC(=O)c3ccco3)C(C)C)cs2)cc1OC (configuration not stated)	x	-2.8
CN(C)S(=O)(=O)c1ccc(S(=O)(=O)N2CCC(c3nc4c(nnn4Cc4cccc(F)c4)c(=O)[nH]3)CC2)cc1	0.679	-1.3
Cc1nc(C(N)=S)cs1	x	-1.9
CC1=C(C(=O)OC(C)C)C(C)C(C(=O)OC(C)C)=C(C)N1	-0.183	1.2
COc1ccc2nc(NC(=O)C3CCCN(S(=O)(=O)c4ccc5c(c4)oc(=O)n5C)C3)sc2c1 (configuration not stated)	0.118	2.9
CNC(=O)Nc1cn(C)c2ccccc12	1.12	-2.7
O=C(Cc1cccc2ccccc12)N(Cc1nnc(-c2ccccc2Cl)o1)C1CC1	x	2.0
CN1CCN(NC(=S)Nc2ccccc2)CC1	0.25	-0.2
CCOC(=O)N1CCC(=NNC(=O)CSc2nnc(-c3ccccc3)n2-c2ccccc2)CC1	x	0.7
CC(CNC(=O)CC1=NS(=O)(=O)c2ccccc2N1)c1ccccc1 (configuration not stated)	-1.38	0.7
Cc1ccc(-c2cccc(N)c2)o1	0.96	-0.3
COc1ccc(Cl)cc1C(=O)NCc1ccc(C(=O)O)cc1	-0.657	1.8
N#Cc1ccc(CN2C(=O)NC3(CCCc4ccccc43)C2=O)cc1 (configuration not stated)	x	0.3
O[C@@H]1[C@@H](O)C=C2CCN3Cc4cc5c(cc4[C@H]1C23)OCO5 (some centres not stated)	-0.582	-0.5
CCc1ccc(N/N=C(\C#N)C(=O)N2CCN(C)CC2)cc1	x	2.0
O=C1c2ccccc2C(=O)N1CCc1nn2c(-c3cccnc3)nnc2s1	0.523	2.1
Cc1c(-c2nn3c(Cc4ccccc4)nnc3s2)nnn1-c1ccccc1	0.882	1.0
CCCCc1noc(-c2ccc(OC(=O)c3ccccc3)cc2)n1	1.18	0.3
O=c1oc2cc(O)ccc2s1	0.36	1.0
O=C(Nc1ccccc1N1CCCCC1)c1ccc(F)cc1	-0.608	0.3
CC1CCCC(NC(=O)NC(=O)CN2C(=O)C3CC=CCC3C2=O)C1C (configuration not stated)	x	0.8
c1ccc(-c2cc3ccsc3s2)cc1	-0.728	1.8
O=C(c1ccc(F)cc1)c1cn(-c2ccc(F)c(Cl)c2)nn1	-0.0665	x

A few values from above:
KSHV LANA nucl, COc1ccc(C(=O)N(C)C2CCCCC2)cc1 is entered as -0.539
Ab BasE inh, COc1ccc(C=Nc2ccc(C)cc2)cc1 is entered as 1.9
